PINK1 expr mod: PINK1 expression modulation | AID 624263 | PINK1 immunofluorescence, high-content cytometry, 24 h | 410,000 compounds, 0.2% hits | Potency, µM (highest dose often 76.6 µM), for the others: top-dose activation (PINK1 increase), hits mostly activators; active = well fitted activation curve with a large enough effect; inconclusive = small, poorly fitted or top-dose-only effect; inactive = flat fitted curve, though single readings scatter; cell line not stated here;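 further: potency means the concentration at half of the fitted maximal effect; % of control where 0% means no effect; nearly all actives have a fitted effect of over 65% in size; a mitochondrial uncoupler was the plate control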
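Stable cell line treated 24 h with compounds at 5 concentrations (CCCP controls), then fixed and immunostained for PINK1 plus nuclear and cell stains; PINK1 immunofluorescence quantified by laser-scanning microplate cytometry.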
CtBP-E1A inh: blocks the CtBP interaction with E1A | activity change, % (no concentration beside the values) | 340,000 compounds, 0.49% hits | AlphaScreen GST-E1A/His-CtBP binding, 1536-well; hits give low values; control for the full effect not named in the record; in the data active means activity change below about -65%; inconclusive means about -30% to -65%; inactive means above about -30%; further: on the % scale 0 is the no-effect control and ±100 the full control effect
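AlphaScreen with 125 nM GST-E1A and 125 nM His-CtBP (5X stocks) in Tris pH 8.0, 300 mM NaCl, BSA, Tween 20, TCEP. Compounds preincubated 2 h at 37 deg C, then glutathione donor/nickel acceptor beads added for 1 h at 37 deg C in dark.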
TRPML1 agonist: agonists of human TRPML1 channel; Q9GZU1; TRPML1-expressing cells, Ca2+ dye fluorescence, FDSS; host cell line not named in the record; reference of the full effect not given here; activation, % (concentration not given with the values); 410,000 compounds, 0.12% hits; AID 624414; in the data active = activation above about 50%; inconclusive = about 30% to 50%; inactive = below about 30%; further: 0% is about no effect; the text of the record puts the active cut at 80%
Target sequence (Q9GZU1 whole entry, looked up): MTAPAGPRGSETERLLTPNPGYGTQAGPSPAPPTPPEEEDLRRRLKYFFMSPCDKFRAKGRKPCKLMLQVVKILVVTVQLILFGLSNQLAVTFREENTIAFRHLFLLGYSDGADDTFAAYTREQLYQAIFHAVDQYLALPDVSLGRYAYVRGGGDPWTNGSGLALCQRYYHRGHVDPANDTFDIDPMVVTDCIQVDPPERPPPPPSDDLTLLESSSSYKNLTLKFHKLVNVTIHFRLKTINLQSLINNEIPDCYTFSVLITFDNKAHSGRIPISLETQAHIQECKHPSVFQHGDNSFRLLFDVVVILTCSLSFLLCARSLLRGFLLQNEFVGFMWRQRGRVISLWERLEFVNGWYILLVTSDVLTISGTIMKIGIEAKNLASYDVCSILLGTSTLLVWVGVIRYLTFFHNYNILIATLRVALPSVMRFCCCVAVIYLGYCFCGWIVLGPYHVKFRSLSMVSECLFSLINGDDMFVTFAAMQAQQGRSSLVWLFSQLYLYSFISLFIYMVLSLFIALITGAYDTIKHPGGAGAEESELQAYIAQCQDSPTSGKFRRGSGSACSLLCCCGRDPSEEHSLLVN
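In this qHTS format, compounds were pin-transferred onto Ca8-dye-loaded TRPML1-DL cells induced with Tet overnight, and intracellular Ca2+ fluorescence was recorded kinetically for 110 s after a 10 s baseline. A subsequent 4uM final 54-4 (EC80) addition followed by a second 110 s read served as the antagonist phase.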
D2 agonist: human D2 receptor agonism in beta-arrestin assay | P14416 | DiscoveRx PathHunter D2 beta-arrestin, luminescence, 90 min; 100% = 57 uM dopamine signal | activation, % (no concentration beside the values) | 360,000 compounds, 0.084% hits | AID 624465; in the data active = activation above about 40%; inconclusive = about 15% to 40%; inactive = below about 15%; further: compound concentration not given in the record; the text of the record calls up to 30% inactive
Target sequence (P14416 whole entry, looked up): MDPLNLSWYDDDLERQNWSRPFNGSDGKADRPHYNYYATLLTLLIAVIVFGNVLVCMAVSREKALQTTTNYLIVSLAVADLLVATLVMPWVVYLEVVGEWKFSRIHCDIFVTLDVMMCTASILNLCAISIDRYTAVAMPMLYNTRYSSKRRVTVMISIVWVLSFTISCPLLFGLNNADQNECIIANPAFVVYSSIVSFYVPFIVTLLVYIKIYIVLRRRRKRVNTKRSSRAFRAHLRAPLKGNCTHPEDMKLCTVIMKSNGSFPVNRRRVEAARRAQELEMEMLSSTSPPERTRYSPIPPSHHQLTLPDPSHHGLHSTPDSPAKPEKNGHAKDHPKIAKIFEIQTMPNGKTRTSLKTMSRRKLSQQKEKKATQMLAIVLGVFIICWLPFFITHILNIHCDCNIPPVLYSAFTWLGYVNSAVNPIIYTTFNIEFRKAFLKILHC
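Agonist mode: compounds alone added to overnight-plated D2 PathHunter cells for 90 min at 37 C, with 57 uM final dopamine (EC100) defining full response. Beta-arrestin recruitment detected by chemiluminescent reagent, read after 1 h at ambient temperature.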
D2 potentiator: human D2 receptor positive allosteric modulation. P14416. DiscoveRx D2 beta-arrestin cells, luminescence, 90 min; 100% = 57 uM dopamine signal. potentiation, % (concentration not given with the values). 360,000 compounds, 0.23% hits. AID 624464; active = potentiation of 50% or more; inconclusive = 30% to 50%; inactive = 30% or less;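 further: tested on top of an EC20 dose of dopamine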
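D2 cells co-treated with compound plus 50 nM dopamine (EC20) for 90 min at 37 deg C to detect potentiation. Beta-arrestin recruitment was read as enzyme-fragment luminescence after 1 h at ambient temperature. Full response was set by 57 uM dopamine.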
Six1-Eya2 blk: blocks human Six1 binding to Eya2 | 360,000 compounds, 0.56% hits | Q15475+O00167 | AlphaScreen GST-Six1/His-Eya2 binding, biochemical; hits give low values; control for the full effect not named in the record | activity change, % (test concentration not listed); in the data active = activity change below about -65%; inconclusive = about -30% to -65%; inactive = above about -30%; further: on the % scale 0 is the no-effect control and ±100 the full control effect
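Homogeneous AlphaScreen proximity assay pairing GST-Six1 with His-tagged Eya2 (added as 5X mix: 250 nM and 500 nM) in 50 mM Tris pH 8.0, 300 mM NaCl, 1 mM TCEP. Glutathione donor and nickel acceptor beads; 1 h, 37 °C, dark.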
Active calls of the source: *; ? = inconclusive; nt = no result given; [ ] = another dose, or the depositor's remark.

Each structure is followed by: PINK1 expr mod, CtBP-E1A inh, TRPML1 agonist, D2 agonist, D2 potentiator, Six1-Eya2 blk
(1) O=C(CN1CC(c2ccccc2)CC1=O)Nc1ccc(F)cc1 (stereo unspecified)
 : 1.3%, 3, -0.2, 0.0, -5, 7
(2) O=C1CC(N2CC=C(c3ccc(F)cc3)CC2)C(=O)N1c1ccc(F)cc1 (stereo unspecified)
 : -2.4%, -7, 4.1, -0.6, -5, -2
(3) O=C1CC(=O)N(c2ccc(Cl)cc2Cl)C(=O)N1
 : 2.9%, -3, -0.6, -0.3, -5, -1
(4) O=P1(Nc2cccnc2)COc2ccccc2OC1
 : 3.1%, 13, -0.4, -2.9, 5, -1
(5) CON(C)C(=O)Nc1ccc(Cl)cc1
 : -0.6%[38.3 µM], 6, -0.4, 0.7, 4, 3
(6) CC(=O)C1(c2ccccc2)CCN(C(=O)C2CCC(=O)N(CCc3cccc(F)c3)C2)CC1 (stereo unspecified)
 : 2.4%, -4, 0.1, 1.7, -12, 6
(7) CC(Cc1ccccc1)NCCC(c1ccccc1)c1ccccc1 (stereo unspecified)
 : -1.2%, 0, 4.6, -7.7, -12, 6
(8) Cc1cc(/C=C2\C(=O)NC(=O)N(c3ccc(F)cc3)C2=O)c(C)n1-c1ccc(C(=O)O)cc1
 : -1.4%, -6, -0.3, -7.3, -6, -6
(9) Cc1ccc(OC(F)F)c(N2C(=O)C3C4CCC(O4)C3C2=O)c1 (stereo unspecified)
 : 1.3%, nt, -0.3, -3.5, 2, 1
(10) CC(=O)OC1C=CC2[C@H]3Cc4ccc(O)c5c4[C@@]2(CCN3C)C1O5 (stereo partly specified)
 : 2.3%, 2, -0.2, 2.1, -2, -3
(11) COc1ccc2c(c1OC)C(=O)OC2c1c(O)n(C2CCCCC2)c(=O)[nH]c1=O (stereo unspecified)
 : 3.2%, 11, 0.1, -2.0, -9, 4
(12) O=C1N(c2ccccc2)C(c2cccnc2)N2CCCN12 (stereo unspecified)
 : 4.5%, 0, 0.0, 5.1, -1, -15
(13) CCCCCCCC(=O)NC(Oc1ccccc1[N+](=O)[O-])C(Cl)(Cl)Cl (stereo unspecified)
 : nt, 14, 0.5, -1.1, 5, 6
(14) CCC(=O)c1ccc(OCC(=O)N2CCN(CC(=O)Nc3ccc(C)cc3)CC2)cc1
 : 0.5%, -8, -0.1, 11, -3, -1
(15) Nc1ccc(CCN2CCCC2)cc1
 : 0.2%, nt, nt, 2.6, 1, -2

Limited to D2 potentiator and Six1-Eya2 blk, for some of the entries so far:
entry | smiles | D2 potentiator | Six1-Eya2 blk
10 | CC(=O)OC1C=CC2[C@H]3Cc4ccc(O)c5c4[C@@]2(CCN3C)C1O5 (stereo partly specified) | -2 | -3
4 | O=P1(Nc2cccnc2)COc2ccccc2OC1 | 5 | -1

Next part.
Each structure is followed by: PINK1 expr mod, CtBP-E1A inh, TRPML1 agonist, D2 agonist, D2 potentiator, Six1-Eya2 blk
(16) COC(=O)C1=C(c2ccccc2)C[C@@H]2CC[C@H]1N2C(=O)N1CCOCC1
 : -1.5%, 3, -0.8, -3.1, 2, -1
(17) CC[C@H](C)[C@@H]1NC(=O)CNC(=O)c2csc(n2)[C@H](C(C)(C)O)OC(=O)C(C)(C)[C@H](CCCC(C)(Cl)Cl)OC(=O)c2csc1n2
 : 7.8%, 4, 0.7, -6.2, -6, -12
(18) NC(N)=Nc1ccc2[nH]c3c(c2c1)C[C@@]1(O)[C@H]2Cc4ccc(O)c5c4[C@@]1(CCN2CC1CC1)C3O5 (stereo partly specified)
 : 0.4%, -15, -0.6, -2.5, -28, -7
(19) CCc1nnc(NS(=O)(=O)c2ccc(N=Cc3c(O)n(-c4ccccc4)c(=O)[nH]c3=O)cc2)s1
 : 0.3%, 0, -0.5, -3.3, -1, 2
(20) Cc1nn(Cc2ccccc2)c(C)c1C(=O)OCC(=O)Nc1cccc(S(N)(=O)=O)c1
 : 3.5%, 2, -1.2, -4.4, 3, 21
(21) COc1ccc(/C=C2/C(=O)NC(=O)N(c3ccccc3)C2=O)cc1CN1C(=O)c2ccccc2C1=O
 : 2.6%, -1, -0.6, 0.1, -2, 7
(22) COc1ccc(OC)c(C(O)C2CCCCN2)c1 (stereo unspecified)
 : -2.0%, -5, 0.6, 4.7, -3, -3
(23) COc1cc(O)cc2c1C(=O)O[C@@H](C)CCCC(=O)CCCCC2
 : 2.9%, nt, -0.1, -0.4, -2, 0
(24) COc1cccc(OP(=O)(Nc2ccccc2)Oc2cccc(OC)c2)c1
 : 0.0%, -1, 4.1, 11, 5, 1
(25) O=c1c2ccccc2nc(/C=C/c2ccco2)n1-c1ccccc1O
 : 0.4%, nt, -0.8, -1.4, -2, -13
(26) COc1cc(-n2c(=S)[nH]c3ccccc3c2=O)c(Cl)cc1Cl
 : 5.4%, -4, 0.7, -8.1, -41, -9
(27) CN(C)c1ccc(C(=O)c2ccc(N(C)C)cc2)cc1
 : 9.8%[38.3 µM], -18, 1.7, -2.8, -3, -15
(28) C#C[C@]1(O)CCC2C3CCC4=C/C(=N/OCC(=O)NC(C)C(=O)NC(CCSC)C(=O)O)CC[C@]4(C)C3CC[C@@]21C (stereo partly specified)
 : 0.0%, nt, 0.8, -2.6, -8, -18
(29) Cc1cc(Oc2ccc(C(F)(F)F)cc2[N+](=O)[O-])c2c3c(c(=O)oc2c1)CCCC3
 : -1.1%, -5, 0.4, -1.5, -9, 5
(30) CCOC(=O)c1cccc(C2=C(CNC(=O)c3cccnc3)[C@H]3CC[C@@H](C2)N3Cc2ccccc2)c1
 : -0.3%, 0, nt, 0.4, nt, -2

Each structure is followed by: PINK1 expr mod, CtBP-E1A inh, TRPML1 agonist, D2 agonist, D2 potentiator, Six1-Eya2 blk
(31) O=C(C(=O)N1CCOCC1)c1cn(Cc2ccccc2Cl)c2ccccc12
 : 0.0%, nt, 0.4, -3.7, -10, 10
(32) Cc1c(N=Cc2c(O)n(CCc3ccc(F)cc3)c(=O)[nH]c2=O)c(=O)n(-c2ccccc2)n1C
 : nt, 7, 0.4, 1.2, 5, 0
(33) CCOC(=O)[C@]12Cc3ccc4ccccc4c3[C@H]1N(Cc1ccccc1)C(=O)c1ccccc12
 : 2.0%, -3, -1.0, nt, nt, 0
(34) CC(C(=O)c1ccc2ccccc2c1)N1CCCCC1 (stereo unspecified)
 : 2.7%, -2, 0.3, -6.5, -18, 1
(35) CCOP(=O)(OCC)C(NC(=O)c1ccc(C)cc1)=C(Cl)Cl
 : 0.8%, 0, -0.7, -23, 0, 8
(36) c1ccc2c(c1)cc1ccc3cccc4ccc2c1c34
 : 1.9%, 71, 0.7, 0.7, -15, 91
(37) CN1CCN(Cc2ccc3ccccc3c2)CC1
 : 0.9%, nt, -0.8, -2.3, -9, -1
(38) CCOP(=O)(OCC)C(O)c1ccc(N(C)C)cc1 (stereo unspecified)
 : -0.4%, 5, 1.0, -3.2, -7, 3
(39) COc1ccc(-n2c(O)c(C=NCCN(C)C)c(=O)[nH]c2=O)cc1
 : 1.2%, 5, -0.5, -6.4, -2, -15
(40) Cc1ccc2n1Cc1cnnn1-c1ccccc1-2
 : -0.6%, -11, -0.3, -7.9, -1, -14
(41) C[N+]1(C)[C@@H]2CC[C@H]1CC(OC(=O)C(CO)c1ccccc1)C2 (stereo partly specified)
 : 1.5%, 4, -0.3, -2.9, -5, -1
(42) COc1ccc(OC)c(-n2c(O)c(C=NCCN3CCNCC3)c(=O)[nH]c2=S)c1
 : -0.4%, 8, nt, -0.9, 1, 3
(43) CN1CCN(c2nc(N)cc(=O)[nH]2)CC1
 : 1.4%, nt, 0.3, -4.8, -21, 4
(44) O=C(NCCN1CCOCC1)c1ccc(Cl)nc1
 : 2.9%, 11, -1.1, 2.1, 3, 5
(45) O=C(NCc1cccnc1)C(Cl)(Cl)Cl
 : 2.5%, 19, -0.4, 1.2, -18, 13

Each structure is followed by: PINK1 expr mod, CtBP-E1A inh, TRPML1 agonist, D2 agonist, D2 potentiator, Six1-Eya2 blk
(46) COC(=O)C1=C(c2ccc(C(C)=O)cc2)C[C@@H]2CC[C@H]1N2C(=O)NCCCOC(C)C
 : 0.2%, 10, -0.1, -1.5, -11, 7
(47) O=C(Nc1cccc(OC(=O)N2CCCCC2)c1)N1CCOCC1
 : -1.0%, nt, 0.5, 3.6, -13, 8
(48) Oc1c(Cl)c(Cl)c(Cl)c(Cl)c1Cl
 : ?, -10, -0.9, 4.8, -5, -2
(49) Cc1c(NP(=S)(C(C)(C)C)C(C)(C)C)c(=O)n(-c2ccccc2)n1C
 : -0.8%, 3, 0.3, 3.8, 2, 0
(50) CN1CN(c2ccccc2)C2(CCN(CCCSc3ccccc3NC(=O)/C=C/c3ccccc3)CC2)C1=O
 : 2.1%, ?, 28, -0.6, -29, ?

Filtered by structure: the entries above containing an aryl methoxy group (eight)
Each structure is followed by: PINK1 expr mod, CtBP-E1A inh, TRPML1 agonist, D2 agonist, D2 potentiator, Six1-Eya2 blk
(11) COc1ccc2c(c1OC)C(=O)OC2c1c(O)n(C2CCCCC2)c(=O)[nH]c1=O (stereo unspecified)
 : 3.2%, 11, 0.1, -2.0, -9, 4
(21) COc1ccc(/C=C2/C(=O)NC(=O)N(c3ccccc3)C2=O)cc1CN1C(=O)c2ccccc2C1=O
 : 2.6%, -1, -0.6, 0.1, -2, 7
(22) COc1ccc(OC)c(C(O)C2CCCCN2)c1 (stereo unspecified)
 : -2.0%, -5, 0.6, 4.7, -3, -3
(23) COc1cc(O)cc2c1C(=O)O[C@@H](C)CCCC(=O)CCCCC2
 : 2.9%, nt, -0.1, -0.4, -2, 0
(24) COc1cccc(OP(=O)(Nc2ccccc2)Oc2cccc(OC)c2)c1
 : 0.0%, -1, 4.1, 11, 5, 1
(26) COc1cc(-n2c(=S)[nH]c3ccccc3c2=O)c(Cl)cc1Cl
 : 5.4%, -4, 0.7, -8.1, -41, -9
(39) COc1ccc(-n2c(O)c(C=NCCN(C)C)c(=O)[nH]c2=O)cc1
 : 1.2%, 5, -0.5, -6.4, -2, -15
(42) COc1ccc(OC)c(-n2c(O)c(C=NCCN3CCNCC3)c(=O)[nH]c2=S)c1
 : -0.4%, 8, nt, -0.9, 1, 3

High-throughput results deposited in PubChem by National Center for Advancing Translational Sciences (NCATS).

A portion of the library; the hit share may differ from the screen's.
